Source: PubChem BioAssay
CBX7 AlphaScr: CBX7 chromodomain binding inhibitors, primary screen, biochemical, AlphaScreen; Chromobox protein homolog 7 (Homo sapiens), O95931; AlphaScreen His6-CBX7 / biotin-H3K27me3 peptide binding; hits give low values; normalised signal (fraction of DMSO) (no concentration beside the values); 66,000 compounds, 1.1% hits; AID 1224903, 2016; in the data active = normalised signal below about 0.5;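 also: 100 nL library stock added to about 20 µL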
Target sequence (O95931 whole entry, looked up): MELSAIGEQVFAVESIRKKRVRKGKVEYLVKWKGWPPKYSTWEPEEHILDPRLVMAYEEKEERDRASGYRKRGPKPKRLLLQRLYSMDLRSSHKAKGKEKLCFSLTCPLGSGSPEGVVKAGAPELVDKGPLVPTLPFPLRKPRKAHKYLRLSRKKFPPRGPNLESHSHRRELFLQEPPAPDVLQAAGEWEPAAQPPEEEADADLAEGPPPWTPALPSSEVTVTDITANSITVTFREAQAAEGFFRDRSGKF
CBX7 AlphaScr z-score: recorded beside CBX7 AlphaScr, whose call it bears; z-score; measured here: z-score of CBX7 signal; some inactives read as strong as hits; reference of the scale not given here;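 same signal on another scale; lower means less binding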
* = called active by the depositor. The list is partial; the hit share may differ from the screen's.

SMILES | CBX7 AlphaScr | CBX7 AlphaScr z-score
CCC(C)NC(=O)CN1C(=O)CC(C)(C)Sc2ccccc21 (configuration not stated) | 0.991 | -0.257
O=C(NCCc1ccccc1)c1cc(=O)[nH]c2ccc(S(=O)(=O)N3CCCCC3)cc12 | 0.931 | -0.779
O=S(=O)(c1ccccc1)c1nc(-c2cccc(Cl)c2)oc1N1CCCCC1 | 0.602 | -3.81
Cn1c2ccccc2c2c(C(=O)NCC3CCCO3)cn(C3CCCCC3)c(=O)c21 (configuration not stated) | 1.04 | 1
Cc1ccc(CN2C(=O)CCC2C(=O)NC2CCCCC2)cc1 (configuration not stated) | 1.04 | 0.0827
Cc1noc(/C=C/c2cccs2)c1S(=O)(=O)N1CCC(C(=O)Nc2ccc(C(C)C)cc2)CC1 | 0.984 | -0.691
O=C(Nc1ccc(F)cc1)c1cccc2c1C(=O)N(Cc1cccnc1)C2 | 1.03 | 0.0251
COc1cccc(NC(=O)C2c3ccccc3C(=O)N3CCc4cc(OC)c(OC)cc4C23)c1 (configuration not stated) | 1 | 0.00158
COc1ccc(N2CCN(CCCNC(=O)CC3Oc4ccc(C)cc4NC3=O)CC2)cc1 (configuration not stated) | 0.82 | -7.28
Cc1ccc(NC(=O)Cc2c(Sc3ccccc3)c3cc(C)ccc3n2C)cc1 | 0.951 | -0.351
CCc1ccc(-c2nc3cc(NC(=O)c4ccc(Cl)cc4)ccc3o2)cc1 | 0.985 | -0.773
CCOc1ccc(NC(=O)Nc2cc3sccc3n2C)cc1 | 0.905 | -3.78
O=C(Nc1ccc(-c2noc(Cc3ccc(Cl)cc3)n2)cc1)c1ccccn1 | 1.23 | 2.91
COc1cc(SC)ccc1C(=O)NCCN1CCOCC1 | 0.997 | -0.0349
O=C(CCc1nc2ccccc2[nH]c1=O)NCC1COc2ccccc2O1 (configuration not stated) | 0.978 | -0.391
COc1cc(OC)c(NC(=O)C2CCCN(S(=O)(=O)c3cnc[nH]3)C2)cc1Cl (configuration not stated) | 0.949 | -0.829
Cc1cc(C)cc(C(=O)Nc2c3c(nn2-c2ccc(Cl)cc2)CSC3)c1 | 1.03 | 0.654
CCN(CC)CCCNC(=O)c1cc(Nc2ccc(OC)cc2OC)nc2ccccc12 | 0.915 | -1.31
CC1CCN(C(=O)CSc2nnc(-c3ccccc3F)o2)CC1 | 0.93 | -0.16
Cc1ccc2c(c1)C(c1ccccc1)N(C(=O)CCCc1ccccc1)CC(=O)N2 (configuration not stated) | 0.936 | -1.61
O=C(c1ccc2c(c1)N(Cc1ccc(F)cc1)C(=O)c1ccccc1S2=O)N1CCc2ccccc2C1 (configuration not stated) | 0.907 | -4.22
CCN1CCCC1CNC(=O)C1CCN(S(=O)(=O)c2c(C)noc2/C=C\c2ccc(OC)cc2)CC1 (configuration not stated) | 1.17 | 0.355
COc1ccc(CNc2ncnc3c2cnn3-c2ccc(OC)cc2)cc1 | 1.04 | 0.133
COc1ccc(-c2cn(-c3ccc(C)cc3)c(SCC(=O)Nc3cc(F)ccc3F)n2)cc1OC | 0.725 | -2.09
COc1cc(S(=O)(=O)NCCc2c(C)[nH]c3c(C)cccc23)c(C)cc1C | 0.862 | -3.02
COc1ccccc1NC(=O)c1n[nH]c(=O)c2ccccc12 | 1.12 | 0.748
COc1ccc(-c2cc(C(=O)NCCC(C)C)c3cc(C(C)C)ccc3n2)cc1 | 1.09 | 1.99
CCOC(=O)c1cnc2c(C(F)(F)F)cccc2c1Nc1cccc(C(=O)O)c1 | 1.04 | 2.01
O=C(CN1N=C(c2ccc(Cl)cc2)CCC1=O)NC1CCCCC1 | 0.991 | -0.141
CCCOc1ccc(N2C(=O)CC(NCc3ccc(OC)cc3)C2=O)cc1 (configuration not stated) | 1.06 | 0.496
O=C(c1ccc2c(=O)n3c(nc2c1)CCCCC3)N1CCN(c2ccccc2)CC1 | 1.02 | 0.729
FC(F)(F)c1cc(-c2ccccc2)nc(N2CCCCCC2)n1 | 1.48 | 5.27
Cc1[nH]c2ccc(-c3nnc(SCC(=O)NCc4ccc(F)cc4)o3)cc2c1C | 0.822 | -1.91
CC(NC(=O)c1cc(=O)[nH]c2ccc(Br)cc12)c1ccc2c(c1)OCCO2 (configuration not stated) | 0.955 | -0.62
Cc1nn(Cc2ccccc2)c(C)c1NC(=O)c1cc(-c2cccc(O)c2)on1 | 1.03 | 0.858
COc1ccc(CCNC(=O)c2csc3c2CCCCC3)c(OC)c1 | 1.03 | 1.01
Cc1ccc(NC(=O)CC2Sc3ccccc3NC2=O)cc1C (configuration not stated) | 1.02 | 0.558
COc1ccc(CCN2C(=O)CN(Cc3ccccc3)CC2=O)cc1OC | 0.729 | -3.49
O=C(O)CCc1ccc(-c2ccccc2)n1-c1cccc(Br)c1 | 0.889 | -1.92
O=C(Nc1c2c(nn1-c1ccc(Cl)cc1)CSC2)c1c(F)cccc1F | 1.01 | 0.146
Cc1cc(C(=O)NCc2cccnc2)c2ccccc2n1 | 1 | 0.0371
Cc1ccc(-c2nn(C)c(=O)c3ccccc23)cc1CNS(C)(=O)=O | 1.01 | 0.0995
CC1CCCCN1CCNC(=O)c1ccc2c(c1)NC(=O)C(N1CCOCC1)S2 (configuration not stated) | 1.18 | 3.45
Cc1nc2ccc(S(=O)(=O)NC(C(=O)NC3CCCC3)C(C)C)cc2s1 (configuration not stated) | 1.06 | 1.07
Cc1ccc(CCNC(=O)c2ccc3c(=O)n4c(nc3c2)CCCCC4)cc1 | 0.881 | -1.96
CCOc1ccc2nc(N3CCCC(C(=O)Nc4ccc(C)cc4Cl)C3)sc2c1 (configuration not stated) | 0.991 | -0.256
COc1cc(OC)c(NC(=O)C2=CCN(S(=O)(=O)c3ccc(F)cc3)CC2)cc1Cl | 1 | 0.138
O=C(NCCCO)c1ccc2[nH]c3c(c2c1)CCCC3 | 1.3 | 2.36
CCc1ccc(-c2nc(SCC(=O)NCCOC)c(-c3ccc(F)cc3)[nH]2)cc1 | 0.899 | -1.72
CN(C)S(=O)(=O)c1ccc(C(=O)Nc2nnc(-c3ccccc3Cl)o2)cc1 | 0.145* | -14.4*
COc1ccc(-c2noc(COc3ccccc3OC)n2)cc1 | 1.21 | 0.252
CCOC(=O)c1ccc(NC(=O)c2c(NCc3sccc3C)sc3c2CCCCC3)cc1 | 0.937 | -1.8
CCCCNC(=O)c1cn(C2CCCCC2)c(=O)c2c1c1ccccc1n2C | 1.06 | 1.56
CCC(C)NC(=O)CCc1c(C)nc2cc(-c3cccc(F)c3)nn2c1C (configuration not stated) | 0.856 | -2.36
COc1ccc(NC(=O)c2cnc3ccccn3c2=O)cc1OC | 1.02 | 0.505
Cc1ccccc1Nc1c(-c2ccc(N(C)C)cc2)nc2cccc(C)n12 | 0.465* | -5.54*
CC(C)CCNC(=O)c1ccc2c(c1)N(Cc1ccccc1)CCS2 | 0.936 | -0.0849
O=C(O)c1c[nH]c2ccc(S(=O)(=O)NCCCN3CCCC3=O)cc2c1=O | 0.497* | -6.73*
CCC(=O)N1CCc2cc(S(=O)(=O)NC(C(=O)NCc3ccccc3Cl)C(C)C)ccc21 (configuration not stated) | 0.981 | -0.358
CCC1Oc2ccc(Cl)cc2N(CC(=O)NCCN(C)C)C1=O (configuration not stated) | 0.867 | -2.3

(list continues)
SMILES | CBX7 AlphaScr | CBX7 AlphaScr z-score
COC1(c2cc(-c3ccccc3)nc(N)n2)CCCCC1 | 0.994 | -0.22
COc1ccc(CNc2ccc(C(=O)O)cc2S(=O)(=O)Nc2cccc(OC)c2)cc1 | 1 | 0.0435
COc1ccc(CCNC(=O)CS(=O)(=O)Cc2nc(-c3cccc(Cl)c3)oc2C)cc1OC | 0.971 | -1.38
COc1ccc(OC)c2[nH]c(=O)c(CCNS(=O)(=O)c3ccc(NC(C)=O)cc3)cc12 | 0.9 | -1.29
O=C1NCCc2c1[nH]c1c(Br)cc3c(c21)OCCO3 | 0.811 | -2.04
Cn1nc(-c2ccc(C(=O)NCCCO)cc2)c2ccccc2c1=O | 1.18 | 1.59
COC(=O)c1cnn2c(C)c(Cc3ccccc3)c(C)nc12 | 1.02 | 0.556
Cc1ccc(OCC(O)CN2CCn3c4c(c5cc(C6CCCCC6)ccc53)CCCC42)cc1 (configuration not stated) | 0.893 | -1.55
COc1cccc(-c2nnc(SCC(=O)Nc3nccs3)o2)c1 | 0.925 | -0.173
COc1cccc(NC(=O)CSc2nc3nc(C)c(Cc4ccc(F)cc4Cl)c(C)n3n2)c1 | 1.01 | 0.106
Cn1cnc2cc(NC(=O)c3ccccc3)ccc21 | 1.1 | 1.67
COc1ccc(-n2nc(C(=O)Nc3nc4ccc(OC)cc4s3)c3ccccc3c2=O)c(OC)c1 | 0.968 | -0.416
Cc1ccc(Cl)cc1N1CCN(CCNC(=O)c2cnn(-c3ccccc3)c2-n2cccc2)CC1 | 1.04 | 1.79
CCN1C(=O)c2ccccc2S(=O)(=O)c2ccc(C(=O)NCCCOC(C)C)cc21 | 1.05 | 1.17
COc1ccccc1NC(=O)c1sc2ncn(CC(=O)N3CCCCC3)c(=O)c2c1C | 1.01 | 0.0729
O=C(Nc1ccc(F)c(Cl)c1)C1CCCN(S(=O)(=O)c2cnc[nH]2)C1 (configuration not stated) | 1.06 | 2.75
Clc1ccc(OCc2nc3ccccc3n2Cc2ccccc2)cc1 | 0.976 | -0.846
Cc1ccc2nc(N3CCN(C(=O)CCC(=O)O)CC3)nc(-c3ccccc3)c2c1 | 0.772 | -0.901
Cc1ccc(CNC(=O)CN2C(=O)CC(C)(C)S(=O)(=O)c3ccccc32)cc1 | 1.03 | 1.03
Cc1cccc(CSc2nc3ccncc3n2CC(=O)NCCC2=CCCCC2)c1 | 0.837 | -2.32
O=C(Nc1ccc(Cl)cc1)c1cc2c(s1)-c1ccccc1OC2 | 1.1 | 2.46
Cc1ccc(NC(=O)C2C3C=CC4(CN(Cc5cccnc5)C(=O)C24)O3)cc1F (configuration not stated) | 1.01 | 0.292
Cc1ccc(S(=O)(=O)Nc2ccccc2C(=O)Nc2ccccc2-c2nc3ccccc3s2)cc1 | 1.18 | 5.04
COc1ccc(OC)c(C2CC(c3cccc(Br)c3)Nc3ncnn32)c1 (configuration not stated) | 0.995 | -0.183
CCc1ccc2oc(-c3ccc(NC(=O)COc4cc(C)cc(C)c4)cc3)nc2c1 | 1.08 | 1.3
CCOc1ccccc1NS(=O)(=O)c1ccc2c(c1)CCN2C(=O)C1CCC1 | 1 | 0.0941
CCOc1ccc(NC(=O)CC2C(=O)N(c3cccc(OC)c3)C(=O)N2CCC2=CCCCC2)cc1 (configuration not stated) | 0.998 | -0.0725
COc1ccc(NC(=O)NCCCN2CCN(c3cc(Cl)ccc3C)CC2)cc1 | 0.686 | -0.417
Cc1ccc(CNS(=O)(=O)c2ccc3c(c2)CCN3C(=O)CCCC(=O)O)cc1 | 0.977 | -0.61
CCc1ccc(NS(=O)(=O)c2ccc3c(c2)CCN3C(=O)C2CCC2)cc1 | 0.931 | -2.31

In the list so far, these have two or more sulfur atoms:
SMILES | CBX7 AlphaScr | CBX7 AlphaScr z-score
Cc1noc(/C=C/c2cccs2)c1S(=O)(=O)N1CCC(C(=O)Nc2ccc(C(C)C)cc2)CC1 | 0.984 | -0.691
Cc1nc2ccc(S(=O)(=O)NC(C(=O)NC3CCCC3)C(C)C)cc2s1 (configuration not stated) | 1.06 | 1.07
CCOC(=O)c1ccc(NC(=O)c2c(NCc3sccc3C)sc3c2CCCCC3)cc1 | 0.937 | -1.8
COc1cccc(-c2nnc(SCC(=O)Nc3nccs3)o2)c1 | 0.925 | -0.173
Cc1ccc(S(=O)(=O)Nc2ccccc2C(=O)Nc2ccccc2-c2nc3ccccc3s2)cc1 | 1.18 | 5.04

Some of the entries above in another layout.
> COc1ccc(OC)c(C2CC(c3cccc(Br)c3)Nc3ncnn32)c1 (configuration not stated)
  CBX7 AlphaScr: 0.995	CBX7 AlphaScr z-score: -0.183

> CCc1ccc2oc(-c3ccc(NC(=O)COc4cc(C)cc(C)c4)cc3)nc2c1
  CBX7 AlphaScr: 1.08	CBX7 AlphaScr z-score: 1.3

> CCOc1ccccc1NS(=O)(=O)c1ccc2c(c1)CCN2C(=O)C1CCC1
  CBX7 AlphaScr: 1	CBX7 AlphaScr z-score: 0.0941

> CCOc1ccc(NC(=O)CC2C(=O)N(c3cccc(OC)c3)C(=O)N2CCC2=CCCCC2)cc1 (configuration not stated)
  CBX7 AlphaScr: 0.998	CBX7 AlphaScr z-score: -0.0725

The listing continues:
SMILES | CBX7 AlphaScr | CBX7 AlphaScr z-score
CC1(C)CC(=O)c2cc(OCC(=O)NCCCN3CCN(c4ccc(F)cc4)CC3)ccc2O1 | 0.943 | -1.13
Cc1ccc(S(=O)(=O)c2nc(C(c3ccccc3)c3ccccc3)oc2N2CCCCC2)cc1 | 0.755 | -6.54
CCc1cccc(NC(=O)c2cnn(-c3ccc(F)cc3)c2C2CCNCC2)c1 | 0.943 | -1.1
CCCOc1ccc(C(=O)Nc2ncc(Cc3cccc(C(F)(F)F)c3)s2)cc1 | 1.1 | 0.607
CCn1c(=O)cc(OCC(=O)Nc2cccc(OC)c2)c2ccccc21 | 0.816 | -3.02
O=C(CN1CCN(Cc2ccc(Cl)cc2)C1=O)NCc1ccc2c(c1)OCO2 | 0.869 | -1.89
COc1ccc(Cl)cc1NC(=O)CSc1nccn1-c1cccc(C)c1C | 0.949 | -0.0514
COc1cccc(CNC(=O)c2cnn3c(C)c(Cc4ccccc4C)c(C)nc23)c1 | 0.81 | -5.24
N#Cc1nc(COc2ccc(Br)cc2)oc1NCc1ccc2c(c1)OCO2 | 0.815 | -8.11
CCN1CCN(c2ncc(C(=O)N(C)C3CCCCC3)c3ccccc23)CC1 | 1.51 | 1.03
CCOc1ccc(NC(=O)CSc2nnc(CNC(=O)c3ccccc3F)o2)cc1 | 0.997 | -0.0946
COc1ccc(C2NC(c3ccc(OC)cc3)C(C)C(=O)C2C)cc1 (configuration not stated) | 0.975 | -0.444
Cc1ccc(C)c(N2CCN(C(=O)CCCN3C(=O)CSc4ncccc43)CC2)c1 | 0.973 | -0.0687
COc1ccc(CNC(=O)C2CCN(Cc3nc(-c4cccc(Br)c4)oc3C)CC2)cc1 | 1.19 | 3.89
COc1ccc(NC(=O)Cn2cc(S(=O)(=O)c3ccccc3)c(=O)c3ccccc32)cc1OC | 1.23 | 7.41
